MT1-MMP reporter = MT1-MMP gene expression reporter suppression – cell-based, luciferase reporter, luminescence (AID 618); MT1-MMP promoter luciferase reporter cells, luminescence; calls from a first round at 10 µM; hits with a dose series show EC50 in µM; actives 0.62% (n = 87,000);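 active means over half of the reporter light lost at 10 µM or EC50 under 50 µM; inactive means the rest and hits that failed the dose series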;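 further: actives suppress MT1-MMP promoter-driven transcription so potencies describe inhibitors; HT1080 fibrosarcoma cells; overnight exposure; toxic or luciferase-blocking compounds were not removed from the actives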
Hsc70 ATP site = Hsc70 inhibitors, probe displacement, primary screen, biochemical, fluorescence polarization (AID 568); Hsc70 fluorescence polarization, probe displacement; higher % means a stronger effect; strong numbers were not always called active; one-dose displacement, % at 20 µM; IC50 in µM for titrated hits; 83,000 tested, under 10 active;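 active means displacement above 50% without optical interference and an IC50 on retest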;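 further: ATPase domain with a fluorescein-tagged ATP probe; 0% = vehicle and 100% = excess ADP; read after one hour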
WNV NS2B-NS3 inh = blocks West Nile virus NS2B-NS3 protease activity; P06935; WNV NS2B-NS3 protease, fluorogenic substrate Ex360/Em465; active compounds read low; z-score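 (tested at a level between 10 and 100 µM)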; actives 0.18% (n = 65,000); AID 577;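 active means z-score at -3 or under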;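 further: score is relative to mean and spread of the compound wells of a plate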
Target sequence (P06935 1371-1501 limits assumed): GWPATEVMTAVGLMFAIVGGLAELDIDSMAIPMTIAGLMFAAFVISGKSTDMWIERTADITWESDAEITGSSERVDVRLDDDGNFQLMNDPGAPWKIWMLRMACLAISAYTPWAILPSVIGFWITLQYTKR
Target sequence (P06935 1502-1679 limits assumed): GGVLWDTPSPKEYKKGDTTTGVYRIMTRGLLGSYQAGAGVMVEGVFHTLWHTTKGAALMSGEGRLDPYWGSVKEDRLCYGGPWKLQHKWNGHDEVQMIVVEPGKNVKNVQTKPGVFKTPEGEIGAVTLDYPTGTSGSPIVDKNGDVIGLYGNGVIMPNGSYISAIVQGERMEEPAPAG
An asterisk follows results filed as active; i = inactive; x = no result given; + = active, no number.

mol | Hsc70 ATP site | MT1-MMP reporter | WNV NS2B-NS3 inh
Cc1cc(C)n(S(=O)(=O)/C=C/c2ccccc2)n1 | -5.9% | i | -0.68
Cc1cc(C)nc(NS(=O)(=O)c2ccc(NC(=O)C3CC(=O)N(c4ccccc4)C3)cc2)n1 (stereo not given) | -1.0% | i | -0.63
COCCNC(=O)c1cc2oc3ccccc3c2n1C | -0.2% | i | x
CCOc1cc(-c2nc3ccccn3c2NCC2CCCO2)ccc1O (stereo not given) | 3.2% | i | 0.36
COc1ccc(-n2c(SCC(=O)Nc3ccccc3)nc3c(c2=O)SCC3)cc1 | 4.1% | i | 0.6
CC(=O)Oc1ccc(N(C(C)=O)S(=O)(=O)c2cccs2)c2ccccc12 | -0.7% | i | x
COc1ccc(OC(=O)Nc2ccccc2)cc1 | 2.7% | i | x
C1CCC(c2nn3c(-c4n[nH]c5c4CCC5)nnc3s2)CC1 | 7.9% | i | -0.76
CCN(CC)C(=O)c1sc(N)c(C(=O)OC(C)C)c1C | 2.0% | i | x
CC(C)Oc1ccc(C(=O)N2CCCC2C(=O)O)cc1 (stereo not given) | 0.2% | i | -0.42
CCOc1ccc(-c2[nH]ncc2-c2ccc(OC)c(OC)c2)c(O)c1 | 1.8% | i | -0.39
CC(C(=O)N=c1sc2ccccc2n1C)N1C(=O)C2CC=CCC2C1=O (stereo not given) | 4.3% | i | 0.95
Cc1ccc(-c2noc(CN(C(=O)c3cccc(Br)c3)C(C)C)n2)cc1 | 4.7% | i | 0.94
CCCn1c(=N)n(CC(O)COc2cccc(C)c2)c2ccccc21 (stereo not given) | -0.8% | i | -1.2
CCCN(C(=O)c1ccccc1N)c1c(C)n(C)n(-c2ccccc2)c1=O | 1.8% | i | -0.27
NS(=O)(=O)c1ccc(NC(=O)CSc2nnc(-c3cnccn3)n2-c2ccccc2)cc1 | -2.6% | i | 0.35
COc1ccc(NC(=O)CSc2nc3c(c(=O)n2-c2ccc(C)cc2)SCC3)c(OC)c1 | -0.1% | i | 0.68
COc1ccc(CNC(=O)C(C)OC(=O)c2cccn2C)cc1 (stereo not given) | -3.9% | i | -0.19
CCN1CCN(CCNC(=O)CSCc2nc(-c3ccc(OC)c(OC)c3)oc2C)CC1 | 1.1% | i | x
COc1ccc(-n2nc(C(=O)NCc3ccco3)c3c4ccccc4n(C)c3c2=O)cc1 | -1.0% | i | 1.2
Cc1cc(C)n(CC(=O)Nc2ccccc2)n1 | 0.7% | i | x
Cc1cccc(C)c1NC(=O)Cn1cnc2c(=O)n(C)c(=O)n(C)c21 | -0.3% | i | -1.1
CN1CCN(CCNC(=O)c2cc3c(=O)n(C)c4ccccc4c3n2C)CC1 | 3.7% | i | -2
Cn1c(SCC(=O)c2ccc(F)cc2)nnc1-c1cnccn1 | -0.4% | i | 0.79
Cc1ccc2nc3c(cc(C#N)c(=N)n3CC3CCCO3)c(=O)n2c1 (stereo not given) | 9.8% | i | 0.48
O=C(Cn1cnc2c(nnn2Cc2ccc(F)cc2)c1=O)N1CCCc2ccccc21 | 1.8% | i | -0.65
O=C(O)c1ccc(Cl)c(S(=O)(=O)N2CCCCCC2)c1 | -0.1% | i | 1.3
COC(=O)C1CCN(CC(=O)Nc2sc3c(c2C#N)CCC3)CC1 | -1.2% | i | x
Cc1ccc(C(=O)CSc2nnc(CNc3nc(-c4ccccc4)cs3)n2C)cc1 | 0.5% | i | -0.25
O=C(CCCc1ccccc1)c1ccc2c(c1)OCCO2 | 5.5% | 0.28µM* | x
COc1cccc(N2CCN(c3ncnc4c3[nH]c3ccc(F)cc34)CC2C)c1 (stereo not given) | -4.3% | + | -0.33
COc1ccc(S(=O)(=O)N2C3CCC2CC(NC(=O)C2CC2)C3)cc1 (stereo not given) | -6.8% | i | 0.44
CSc1n[nH]c(NC2=CC(=O)CCC2)n1 | -5.2% | i | -0.03
Cc1cc(C(F)F)n2ncc(C(=O)N3CCc4ccccc4C3)c2n1 | 2.7% | i | -0.16
CC(=O)N1c2c(cc(Br)cc2S(=O)(=O)NCc2ccc3c(c2)OCO3)CC1C (stereo not given) | -1.1% | i | 2.2
Cc1ccc(S(=O)(=O)CCc2ccccn2)cc1 | 6.4% | i | -0.09
O=C(Nc1nnc(Cc2ccc(Cl)cc2)s1)c1ccco1 | 7.0% | i | x
CCOc1c(S(=O)(=O)N2CCCC2)ccc(Cl)c1Cl | 7.1% | i | 0.71
Cn1cnnc1SCC(=O)Nc1sc2c(c1C(N)=O)CCC2 | -18% | i | -0.27
Cc1ccc(-n2ncc3c(NCCCN4CCCC4=O)ncnc32)c(C)c1 | -1.7% | i | -0.68
COc1cccc(-c2nnc(SCCC(=O)O)n2C)c1 | -7.8% | i | -1.3
FC(F)(F)c1cc(-c2ccco2)nc(NCc2ccco2)n1 | -7.6% | i | -0.72
CC(C)CNS(=O)(=O)c1ccc(S(=O)(=O)N2CCCN(Cc3ccccc3)C2)cc1 | 0.1% | i | 0.42
Cn1c(SCCOc2ccccc2Cl)nnc1-c1ccncc1 | 2.8% | i | -0.5
CNc1nc(SCC(=O)OC)nc(N2CCOCC2)n1 | 6.0% | i | -1.1
COCc1cc(=O)n2[nH]c(-c3cccc(Br)c3)cc2n1 | 4.7% | i | -0.76
CCOc1ccc(NC(=O)N2CCC(n3c(=O)[nH]c4ccccc43)CC2)cc1 | 2.5% | i | -0.7
CCC(OC(=O)c1cc2sccc2n1C)C(=O)NCc1ccco1 (stereo not given) | -1.6% | i | -0.09
CCCCC(=O)Nc1nnn(CCC)n1 | 0.8% | i | 1.1
O=C(OCCN1C(=O)c2ccccc2C1=O)c1cc(S(=O)(=O)N2CCOCC2)ccc1F | -3.6% | i | -3.1*

15 compounds out of the list, ordered by heavy-atom count, low to high.
mol | Hsc70 ATP site | MT1-MMP reporter | WNV NS2B-NS3 inh
CSc1n[nH]c(NC2=CC(=O)CCC2)n1 | -5.2% | i | -0.03
Cc1ccc(S(=O)(=O)CCc2ccccn2)cc1 | 6.4% | i | -0.09
CCOc1c(S(=O)(=O)N2CCCC2)ccc(Cl)c1Cl | 7.1% | i | 0.71
CNc1nc(SCC(=O)OC)nc(N2CCOCC2)n1 | 6.0% | i | -1.1
O=C(CCCc1ccccc1)c1ccc2c(c1)OCCO2 | 5.5% | 0.28µM* | x
FC(F)(F)c1cc(-c2ccco2)nc(NCc2ccco2)n1 | -7.6% | i | -0.72
Cn1c(SCCOc2ccccc2Cl)nnc1-c1ccncc1 | 2.8% | i | -0.5
COC(=O)C1CCN(CC(=O)Nc2sc3c(c2C#N)CCC3)CC1 | -1.2% | i | x
COc1ccc(S(=O)(=O)N2C3CCC2CC(NC(=O)C2CC2)C3)cc1 (stereo not given) | -6.8% | i | 0.44
Cc1ccc(-n2ncc3c(NCCCN4CCCC4=O)ncnc32)c(C)c1 | -1.7% | i | -0.68
CCOc1ccc(NC(=O)N2CCC(n3c(=O)[nH]c4ccccc43)CC2)cc1 | 2.5% | i | -0.7
COc1cccc(N2CCN(c3ncnc4c3[nH]c3ccc(F)cc34)CC2C)c1 (stereo not given) | -4.3% | + | -0.33
Cc1ccc(C(=O)CSc2nnc(CNc3nc(-c4ccccc4)cs3)n2C)cc1 | 0.5% | i | -0.25
O=C(Cn1cnc2c(nnn2Cc2ccc(F)cc2)c1=O)N1CCCc2ccccc21 | 1.8% | i | -0.65
O=C(OCCN1C(=O)c2ccccc2C1=O)c1cc(S(=O)(=O)N2CCOCC2)ccc1F | -3.6% | i | -3.1*

Following part
mol | Hsc70 ATP site | MT1-MMP reporter | WNV NS2B-NS3 inh
COc1ccc(OCC(=O)Nc2ccc(C)cc2)cc1 | 2.2% | i | -0.64
CC(C)(C)n1nnnc1CN1CCN2CCCC2C1 (stereo not given) | 3.5% | i | x
CCCCOc1ccc(CN2CCCCC2)cc1 | 1.8% | i | 1
CN(C)C(=O)COc1ccc2cc(-c3ccccc3)c(=O)oc2c1 | 13% | i | 3.8
CN(C)S(=O)(=O)c1c(Cl)cccc1Cl | -0.9% | i | x
O=C(NC1CCCCC1)c1cnn2c(C(F)(F)F)cc(-c3ccco3)nc12 | -7.7% | i | 1.5
Cc1ccc(-n2c(=O)[nH]c3c(C(N)=O)nc(-c4ccc(C)o4)nc32)cc1 | -9.7% | i | 2.8
CCCCOP(=O)(OCCCC)C1(NS(=O)(=O)c2ccccc2)C=CC(=O)c2ccccc21 (stereo not given) | -2.2% | i | x
Cc1nnc(SCCn2c(N3CCCC(C)C3)nc3c2c(=O)[nH]c(=O)n3C)s1 (stereo not given) | 0.2% | i | 0.4
CC1CCN(c2nc3c(c(=O)n(C)c(=O)n3C)n2CCSc2ncccn2)CC1 | 4.1% | i | -0.55

High-throughput results from PubChem BioAssay.

An excerpt. The share of hits here may be higher or lower than overall.
